Rango dissoc inh – inhibitors of RanGTP-induced Rango-importin beta complex dissociation. O95149+P62826. Biochemical FRET Rango-importin beta, RanGTP-induced dissociation. Potency, µM (doses to about 46.1 µM), without a hit: top-dose activity change, negative = inhibition. 340,000 compounds, 0.071% hits. AID 540253; active means falling FRET ratio curve, often poorly fitted, with flat reads before Ran was added; inconclusive means other falling curves, or compound fluorescence or quenching; inactive means flat or rising ratio curve;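 further: potency means the concentration at half of the fitted maximal effect; % of control where 0% means no effect; nearly all actives have a fitted effect of over 45% in size; -100% = wells without RanGTP and RCC1; the record marks most hits as doubtful in a second field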
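Two FRET readings bracket the reaction: one 5 min after compound meets Rango–importin beta, another 45 min after RanGTP-RCC1 (0.6 uM Ran, 0.2 uM RCC1, 2 mM GTP) is added. Only the second defines inhibition.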
miR-21 FLuc – raises the signal of a miR-21 reporter; HeLa miR-21 FLuc reporter, luciferase, 48 h; Potency, µM (titrated, usually from 38.3 µM), for the others: top-dose reporter change, positive = more light; 340,000 tested, under 10 active; AID 2288; active = well fitted rising curve with a large enough effect; inconclusive = small, poorly fitted or top-dose-only effect; inactive = no such curve, though single readings can be large or run the other way;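 further: % of control where 0% means no effect; miR-21 action dims this reporter so a rising signal means less miR-21 action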
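Compounds were titrated across several concentrations (up to approximately 40 uM) and incubated 48 hours with HeLa miR-21-FLuc reporter cells (miR-21 target sequence downstream of FLuc, endogenous miR-21). Readout was firefly luciferase luminescence after lytic detection reagent.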
Rango-impB inh – prevents formation of the Rango-importin beta complex | Rango CFP/YFP FRET sensor + importin beta, 45 min | Potency, µM (doses to about 92.2 µM), for inactives: at the top dose inhibition of complex formation | 340,000 compounds, 0.031% hits; active = rising FRET ratio curve, often small or poorly fitted; inconclusive = mostly compound fluorescence or quenching in the first reads; inactive = flat curves in all reads;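 further: potency means the concentration at half of the fitted maximal effect; 0% = DMSO wells and 100% = buffer wells lacking importin beta; nearly all actives have a fitted effect of over 15% in size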
Target sequence (Q14974 whole entry, looked up): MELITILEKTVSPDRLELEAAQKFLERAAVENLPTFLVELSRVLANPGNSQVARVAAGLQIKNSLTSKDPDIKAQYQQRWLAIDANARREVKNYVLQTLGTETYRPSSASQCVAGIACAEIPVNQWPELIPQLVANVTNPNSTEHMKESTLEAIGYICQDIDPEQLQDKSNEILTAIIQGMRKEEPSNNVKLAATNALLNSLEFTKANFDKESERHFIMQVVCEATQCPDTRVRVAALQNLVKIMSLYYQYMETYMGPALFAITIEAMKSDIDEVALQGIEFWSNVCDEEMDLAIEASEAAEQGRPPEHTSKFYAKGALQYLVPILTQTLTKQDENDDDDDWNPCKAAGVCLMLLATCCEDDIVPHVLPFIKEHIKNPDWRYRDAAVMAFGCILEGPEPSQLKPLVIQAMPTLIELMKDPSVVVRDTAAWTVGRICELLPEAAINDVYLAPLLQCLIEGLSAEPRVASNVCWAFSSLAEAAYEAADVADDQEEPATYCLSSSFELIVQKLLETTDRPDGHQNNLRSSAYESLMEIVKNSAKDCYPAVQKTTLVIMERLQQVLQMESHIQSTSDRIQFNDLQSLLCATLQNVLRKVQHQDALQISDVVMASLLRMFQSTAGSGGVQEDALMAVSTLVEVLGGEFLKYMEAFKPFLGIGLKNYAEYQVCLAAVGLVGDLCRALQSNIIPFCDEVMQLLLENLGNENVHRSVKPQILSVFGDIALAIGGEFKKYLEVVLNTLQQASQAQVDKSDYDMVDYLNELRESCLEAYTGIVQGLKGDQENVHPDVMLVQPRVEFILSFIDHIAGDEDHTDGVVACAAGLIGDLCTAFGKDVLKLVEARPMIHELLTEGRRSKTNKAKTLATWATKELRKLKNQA
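FRET biosensor (snurportin 1 IBB flanked by EYFP and cerulean), 50 nM, with compound 5 min, then 0.125 microM importin beta in PBS, 1 mM DTT, 0.02% Tween-20, 0.1% BSA. CFP/YFP ratio read after 45 min at room temperature; pre-read flags interference.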
GLA inh pH 4.5 – alpha-galactosidase A (human) inhibition, pH 4.5; P06280; purified enzyme, 4-MU-alpha-Gal fluorescence, pH 4.5; activity change, negative = inhibition, % at 105 µM; 230,000 tested, under 10 active; AID 1467; inconclusive = small, poorly fitted or top-dose-only inhibition, or a rising curve; inactive = flat fitted curve, though single readings scatter; no compound was filed as active;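 further: 0% = full activity with enzyme and -100% = basal without enzyme; dose as in the result columns while the protocol names 77 µM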
* marks the source's active call; other numbers are inactive results; ? = inconclusive; nt = no result given. Some of the compounds tested; the hit share may differ from the screen's.

nr | mol | Rango dissoc inh | miR-21 FLuc | Rango-impB inh | GLA inh pH 4.5
1 | CCOC(=O)Cn1c(S(=O)(=O)Cc2ccc(Cl)cc2)nc(-c2ccccc2)c1-c1ccccc1 | -3% | 0% | 4.3% | -5
2 | CSCC[C@@H](C(=O)O)N1Cc2ccccc2C1=O | -7% | 0% | -2.3% | 0
3 | CC(C)CC(NC(=O)CC12CC3CC(CC(C3)C1)C2)C(=O)NC1=NCCS1 (centres undefined) | 0% | -1% | ? | -4
4 | CC(C)OC(=O)n1c(=S)oc2ccccc21 | -23% | -9% | 1.8% | -9
5 | CCOc1ccc(NC(=O)NNC(=O)C2CCC(C(C)(C)C)CC2)cc1 (centres undefined) | 21% | 0% | -1.1% | 8
6 | Cc1ccc(-c2nnn(CC(=O)N(CCCO)C(C(=O)NC3CCCC3)c3ccc(Cl)cc3)n2)o1 (centres undefined) | -1% | -4% | 1.5% | nt
7 | CN(C)NC(=S)Nc1cccc(C(F)(F)F)c1 | -7% | 4% | 0.1% | 3
8 | COc1ccc(S(=O)(=O)Nc2c(C)nn(C)c2C)cc1Br | -13% | nt | -1.2% | nt
9 | COc1ccc2sc(C)[n+](C)c2c1 | 0% | 6% | 4.8% | -5
10 | CCOC(=O)N1CCN(C(=O)c2ccc3c(c2)N=C(C)c2cc(Cl)ccc2S3)CC1 | 13% | 13% | 7.4% | nt
11 | COc1ccc(C(=O)N(CC(=O)NC(C)(C)C)c2ccc3c(c2)OCCO3)cc1OC | 5% | -20% | 3.4% | -2
12 | Cc1sc2ncnc(N3CCC(C(=O)Nc4sc5c(c4C(N)=O)CCC(C)C5)CC3)c2c1C (centres undefined) | -5% | nt | -1.5% | nt
13 | COc1ccc2sc(N(CCCN(C)C)C(=O)c3ccc(S(=O)(=O)N4CCc5ccccc5C4)cc3)nc2c1 | 57% | nt | 1.7% | nt
14 | COC(=O)C1(C(C[N+](=O)[O-])c2ccc(C)cc2)C(=O)NCC1c1ccco1 (centres undefined) | 22% | 5% | 0.1% | -1
15 | CC(=O)c1sc(N/N=C2\CC3CC2C(C)C3(C)C)nc1C (centres undefined) | -7% | -56% | ? | -5
16 | CCOc1nc2cnccc2n(CC(=O)Nc2ccccc2F)c1=O | 1% | -17% | -0.1% | nt
17 | Cc1ccc(OCC(=O)NCCNC(=O)c2ccncc2)cc1C | -11% | 2% | -0.7% | nt
18 | O=C(Nc1cccc(Cl)c1Cl)C1CCCC1 | 1% | nt | -0.3% | nt
19 | COc1ccc(C2(CNC(=O)CCC(=O)O)CCCC2)cc1 | 10% | -2% | -3.3% | -1
20 | COc1ccc(C2=NN3C(C2)c2ccccc2OC32C(=O)N(C)c3ccccc32)cc1 (centres undefined) | -12% | -57% | -3.5% | -3
21 | Cc1ccc(C)c(NC(=O)N2CCc3ccccc3C2)c1 | 8% | -48% | 0.4% | nt
22 | COc1ccc(N(CC(=O)Nc2cccc(C)c2C)S(=O)(=O)c2c(C)[nH]c(=O)[nH]c2=O)cc1 | -2% | -5% | 0.5% | 1
23 | CN1CCN(C(=O)c2ccc(C(F)(F)F)cc2)CC1 | 13% | -1% | -0.6% | 5
24 | COc1cc(NC(=O)COC(=O)CNC(=O)C23CC4CC(CC(C4)C2)C3)cc(OC)c1 | -1% | nt | -2.9% | nt
25 | O=C(N=Nc1c(O)[nH]c2ccccc12)c1cccs1 | 0% | -18% | 0.5% | -2
26 | COc1ccc(-c2nc(CC(=O)Nc3cccc(S(=O)(=O)NC4=NCCC4)c3)cs2)cc1 | 1% | nt | ? | nt
27 | Cc1cccnc1NC(N)=S | 6% | -12% | 2.8% | 3
28 | N#CC1(c2nc3ccccc3[nH]2)CC1c1ccc2c(c1)OCO2 (centres undefined) | -6% | -9% | -2.1% | 11
29 | CC(OC(=O)C1CC1C)C(=O)Nc1ccc(Cl)cn1 (centres undefined) | 23% | nt | 0.7% | nt
30 | O=C(COC(=O)C1CCC1)Nc1cccc(Cl)c1 | 20% | nt | 2.2% | nt
31 | CNC(=O)CSc1nnc(-c2ccncc2)n1Cc1ccccc1 | ? | 1% | -5.6% | 3
32 | O=C(/C=C/NCc1cccnc1)C(F)(F)C(F)(F)F | 11% | -2% | ? | -4
33 | Cc1cc2c(cc(C(=O)N3CCC(C(=O)N4CCCC4)CC3)n2Cc2c(F)cccc2Cl)o1 | -12% | -1% | -1.4% | -2
34 | O=[N+]([O-])c1ccc(/C=N/n2c(-c3ccccc3)n[nH]c2=S)cc1 | 1% | 0% | -0.1% | nt
35 | Cc1ccc(NC(=O)CN2C(=O)CNC2=O)cc1 | -13% | 5% | 0.4% | 4
36 | Oc1c(/C=N/c2ncn[nH]2)ccc2ccccc12 | ? | -13% | ? | 11
37 | O=C1CCCN1c1ccc(Br)cc1 | 21% | -4% | -0.2% | 10
38 | CCOC(=O)CN1CCc2c(C)nc3c(-c4ccc(OC)c(OC)c4)cnn3c21 | -11% | -6% | -1.4% | -7
39 | CCn1c(SCC(=O)N2CCOCC2)nnc1C(C)NC(=O)c1ccccc1 (centres undefined) | 2% | -3% | 2.0% | nt
40 | COc1ccc(C(CNC(=O)CN2C(=O)NC3(CCCC3)C2=O)N(C)C)cc1 (centres undefined) | 1% | -13% | 0.4% | nt
41 | Cc1ccc(S(=O)(=O)NCC(=O)N(CC(=O)NC2CCCCC2)CC2CCCO2)cc1 (centres undefined) | -7% | -3% | 2.5% | -6
42 | COc1cc(C)c(C(=O)CSc2nnc(CNC(=O)c3ccco3)n2C)cc1C | 2% | -4% | ? | nt
43 | Cc1nc(SCC(=O)NCC2CCCO2)c2cc(-c3ccccc3)sc2n1 (centres undefined) | -1% | nt | -2.1% | nt
44 | CN(C)c1ccc(C(=S)N2CCN(C(=S)Nc3ccccc3)CC2)cc1 | 0% | -3% | -3.2% | 5
45 | CCOc1ccccc1C(=O)Nc1nnc(SCC(=O)N2CCOCC2)s1 | 1% | -9% | ? | 0
46 | O=C(CCN1C(=O)C2C3C=CC(C3)C2C1=O)N1CC(=O)N(CCc2ccccc2)C(=O)C1 (centres undefined) | -20% | -2% | -0.9% | -6
47 | COc1ccccc1NC(=O)CN1CCN(c2ccccc2F)CC1 | -6% | -6% | -0.4% | -2
48 | Cc1ccccc1-c1nc(CS(=O)(=O)CC(=O)N2CCc3ccccc32)c(C)o1 | 2% | 2% | ? | 2
49 | CCOC(=O)N1CCC(Nc2cccc(SC)c2)CC1 | 0% | 2% | 1.5% | 0
50 | Cc1ccc2nc(NC3=NCN(CCc4ccccc4)CN3)nc(C)c2c1 | nt | -6% | nt | 4
51 | CCN(CC(=O)Nc1ccc2c(c1)OCCO2)C(=O)C1CCCCC1 | -9% | -7% | 8.0% | -1
52 | O=C(c1cnn2c1NC(c1ccco1)CC2C(F)(F)F)N1CCN(c2cccc(Cl)c2)CC1 (centres undefined) | -1% | 25% | ? | -8
53 | CCCC(=O)Nc1nc2c(OC)ccc(OC)c2s1 | 0% | -2% | 1.2% | -11
54 | COC(=O)c1cn(NC(=O)Cn2nc([N+](=O)[O-])c(Br)c2C)c(=O)c2ccccc12 | 1% | -1% | ? | -2
55 | Cc1ccc(C)c(NC(=O)CSc2ncnc3nc[nH]c23)c1 | 20% | -7% | -0.3% | 7
56 | CCC1(C(=O)OC)NC(c2ccco2)C2C(=O)N(c3ccc(F)cc3)C(=O)C21 (centres undefined) | 16% | -2% | -1.8% | 11

Remaining list, next part:
nr | mol | Rango dissoc inh | miR-21 FLuc | Rango-impB inh | GLA inh pH 4.5
57 | CCN(C(=O)CSc1ccc(S(=O)(=O)N2CCOCC2)cn1)c1ccccc1 | 34% | nt | 4.6% | nt
58 | COc1cccc(CN2CC(C(=O)NCCc3ccccc3C(F)(F)F)CCC2=O)c1 (centres undefined) | 0% | -8% | 2.1% | nt
59 | CC(=O)Nc1ccc(NC(=O)c2cccc(Oc3ccccc3)c2)cc1 | 6% | -3% | -2.4% | nt
60 | COc1cccc(NC2C=CS(=O)(=O)C2)c1 (centres undefined) | -2% | -3% | 2.0% | 3
61 | Cc1ccc(-c2c(C(=O)N/N=C/c3ccc4c(c3)OCO4)nnn2-c2nonc2N)cc1 | -11% | -1% | -0.2% | nt
62 | COc1ccc(CNC(=O)Cn2cc(C(F)(F)F)ccc2=O)cc1 | 2% | -4% | 2.4% | 0
63 | Cc1ccc(NC(=O)CCCCCN2C(=O)[C@@H]3Cc4ccccc4CN3C2=O)c(Cl)c1 | 1% | 14% | 4.5% | nt
64 | Cc1cccc2cc(CN(Cc3ccco3)C(c3nnnn3CCc3ccccc3)C(C)C)c(=O)[nH]c12 (centres undefined) | -3% | 0% | 2.1% | -8
65 | CCN(CC)S(=O)(=O)c1ccc(OC)c(N)c1 | 11% | 0% | ? | -6
66 | Cc1nc2sccn2c(=O)c1CCN1CCC(=C(c2ccc(F)cc2)c2ccc(F)cc2)CC1 | 12% | 23% | -1.3% | ?
67 | Cc1cc(C(=O)N/N=C/c2cn(C)nc2C)c2ccccc2n1 | -9% | -3% | 3.9% | nt
68 | O=C(Cn1cnc([N+](=O)[O-])c1)c1ccc(F)cc1 | 12% | nt | -2.1% | nt
69 | O=C(Cn1ncn2c(cc3ccccc32)c1=O)NCc1ccco1 | -5% | -1% | -0.7% | -16
70 | Cc1cc(C)n(-c2nc3nonc3nc2Nc2cccc(C)c2C)n1 | ? | -4% | -4.8% | 0
71 | Clc1ccc(-c2nc3ccccc3[nH]2)cn1 | 2% | -34% | 4.9% | -1
72 | O=C(CNCc1cccc(Cl)c1)N1CCc2ccccc2C1 | -12% | -25% | -1.1% | nt

By substructure, the entries above containing a Cl atom (11)
nr | mol | Rango dissoc inh | miR-21 FLuc | Rango-impB inh | GLA inh pH 4.5
1 | CCOC(=O)Cn1c(S(=O)(=O)Cc2ccc(Cl)cc2)nc(-c2ccccc2)c1-c1ccccc1 | -3% | 0% | 4.3% | -5
6 | Cc1ccc(-c2nnn(CC(=O)N(CCCO)C(C(=O)NC3CCCC3)c3ccc(Cl)cc3)n2)o1 (centres undefined) | -1% | -4% | 1.5% | nt
10 | CCOC(=O)N1CCN(C(=O)c2ccc3c(c2)N=C(C)c2cc(Cl)ccc2S3)CC1 | 13% | 13% | 7.4% | nt
18 | O=C(Nc1cccc(Cl)c1Cl)C1CCCC1 | 1% | nt | -0.3% | nt
29 | CC(OC(=O)C1CC1C)C(=O)Nc1ccc(Cl)cn1 (centres undefined) | 23% | nt | 0.7% | nt
30 | O=C(COC(=O)C1CCC1)Nc1cccc(Cl)c1 | 20% | nt | 2.2% | nt
33 | Cc1cc2c(cc(C(=O)N3CCC(C(=O)N4CCCC4)CC3)n2Cc2c(F)cccc2Cl)o1 | -12% | -1% | -1.4% | -2
52 | O=C(c1cnn2c1NC(c1ccco1)CC2C(F)(F)F)N1CCN(c2cccc(Cl)c2)CC1 (centres undefined) | -1% | 25% | ? | -8
63 | Cc1ccc(NC(=O)CCCCCN2C(=O)[C@@H]3Cc4ccccc4CN3C2=O)c(Cl)c1 | 1% | 14% | 4.5% | nt
71 | Clc1ccc(-c2nc3ccccc3[nH]2)cn1 | 2% | -34% | 4.9% | -1
72 | O=C(CNCc1cccc(Cl)c1)N1CCc2ccccc2C1 | -12% | -25% | -1.1% | nt
